Bioassay records from PubChem.
Calb FLC: affects C. albicans growth with fluconazole; C. albicans CaCi-2 (fluconazole-resistant clinical isolate) + fluconazole, Alamar Blue growth, 48 h; growth inhibition, % (test concentration not listed); hit rate 0.57% among 300,000;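 active = most replicates above 75%; inconclusive = exactly half above 75%; inactive = most below 75%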;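 also: all wells also contain fluconazole at 8 µg/ml as a sub-toxic cotreatment; 0% = median of DMSO wells and 100% = median of geldanamycin control wells; wells of about 8 µL received 7.5 nL stock; the first replicate is given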
A1 inh: inhibitors of the anti-apoptotic protein A1, read as caspase activation; MEF A1-2A-BIM cells, Caspase-Glo 3/7 luminescence, 3 h; percent of clofoctol response, vehicle zero; caspase activation, % (test concentration not listed); hit rate 0.066% among 330,000; AID 2462;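 active = over half of replicate activation scores above 10%, or exactly half above 10 with the replicate mean above 10; inconclusive = replicate mean below 10 yet half the replicates above 10; inactive = over half of replicates below 10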;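 also: wells of about 30 µL received 50 nL stock; many hits fall short of the cut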
LANA-H2B inh: blocks KSHV LANA binding to histone H2A/H2B | hit rate 0.6% among 320,000 | cell-free LANA-H2A/H2B peptide, fluorescence polarization | Q9QR71 | inhibition, % (no concentration beside the values); in the data active = inhibition mostly above about 10%, no sharp cut-off; inactive = mostly below about 6.7%;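 also: stock transfer was 7.5 nL into about 10 µL; 0% = median of vehicle wells and 100% = median of positive control wells; one replicate is shown; the record names a cut of 25% in any replicate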
Ecoli rRNA inh: inhibits bacterial ribosomal RNA function over humanized ribosomes; E. coli WT GFP vs humanized-ribosome RFP mutants, fluorescence, 24 h; hits give low values; DMSO median 0, no signal -100; GFP signal change (wild-type ribosome), % (concentration not given with the values); hit rate 1.6% among 350,000;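 active = significant combined selectivity score with lowered wild-type GFP, culture density cut under 30%, mutant RFP and density less affected; inactive = any of these conditions unmet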; also: one replicate is shown; some compounds called inactive have numbers as strong as hits
ALR H2O2 inh: inhibitors of human sulfhydryl oxidase ALR | purified ALR, DTT oxidation, H2O2 HRP-luminol luminescence | inhibition, % (no concentration beside the values) | hit rate 3.8% among 290,000;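 active = mean and each replicate at 75% or more; inconclusive = only one of the two met; inactive = neither met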;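 also: stock transfer was 7.5 nL into about 7.5 µL; 0% = neutral wells and 100% = wells with inactivated enzyme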
Target sequence (P55789 whole entry, looked up): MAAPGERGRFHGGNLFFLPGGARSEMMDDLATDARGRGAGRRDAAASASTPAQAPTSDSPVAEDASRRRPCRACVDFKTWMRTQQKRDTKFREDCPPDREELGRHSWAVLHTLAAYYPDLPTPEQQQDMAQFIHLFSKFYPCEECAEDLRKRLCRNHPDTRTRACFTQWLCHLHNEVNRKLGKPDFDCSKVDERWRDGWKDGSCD
T cruzi repl: blocks replication of Trypanosoma cruzi; T. cruzi beta-gal in NIH3T3, luminescence, 90 h; inhibition, % (test concentration not listed); hit rate 1.4% among 300,000; AID 1885;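 active = mean inhibition across valid replicates above about 55%, limit read from the data; inconclusive = mean below that limit but half or more replicates reach it; inactive = mean below it, under half of replicates reach it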;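 also: signal also drops with host cell toxicity which is not excluded here; 0% = plate median of DMSO wells and 100% = zero luminescence signal; higher percent means less beta-gal luminescence so fewer parasites; stock transfer was 50 nL into about 50 µL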
Beta2AR agonist: human beta-2 adrenergic receptor agonism by FAP; hit rate 0.43% among 340,000; Am2.2-beta2AR cells, FAP receptor internalization, flow cytometry; reference of the scale not given here; response, % (concentration not given with the values); AID 504454;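 active = response above a set limit, near 3 SD of response in nonfluorescent compounds, cut at about 42% in these data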;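 also: stock transfer was 100 nL into about 11 µL; a reference agonist was the positive control; negative values mostly stem from fluorescent compounds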
Target sequence (P07550 whole entry, looked up): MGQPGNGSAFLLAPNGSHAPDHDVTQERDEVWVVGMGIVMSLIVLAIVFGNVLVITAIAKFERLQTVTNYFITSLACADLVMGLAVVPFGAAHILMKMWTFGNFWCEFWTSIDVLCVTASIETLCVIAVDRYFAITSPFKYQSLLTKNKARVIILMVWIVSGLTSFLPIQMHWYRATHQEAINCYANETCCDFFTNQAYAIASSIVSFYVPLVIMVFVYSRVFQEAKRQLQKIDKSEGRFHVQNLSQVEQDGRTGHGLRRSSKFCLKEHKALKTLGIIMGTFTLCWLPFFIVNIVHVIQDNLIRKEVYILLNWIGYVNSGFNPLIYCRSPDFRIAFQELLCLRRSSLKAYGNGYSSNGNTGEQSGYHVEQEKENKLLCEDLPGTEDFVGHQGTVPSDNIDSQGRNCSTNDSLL
Beta cell apopt: blocks beta cell apoptosis. AID 435005. hit rate 0.8% among 300,000. INS-1E cytokine-induced death, ATP luminescence, 48 h; percent of positive-control rescue, neutral wells zero. protection from apoptosis, % (test concentration not listed);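 active = all replicates at 75% or more, or half of them and the mean; inconclusive = half reach 75% but not the mean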;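 also: 0% = cytokine-treated negative control wells and 100% = positive control rescue; higher means more ATP so stronger rescue from cytokine killing; wells of about 40 µL received 100 nL stock; the first replicate is given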
Ecoli rRNA inh OD600: second read-out of Ecoli rRNA inh, no call of its own (marks repeat the call); OD600 change, %; measured here: OD600 growth;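 optical density of the mix in the first replicate; 0 = DMSO median and -100 = no signal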
Ecoli rRNA inh RFP: recorded beside Ecoli rRNA inh, whose call it bears; RFP signal change, %; measured here: RFP humanized mutant strains;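 first replicate; 0 = DMSO median and -100 = no signal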
Active calls of the source: *; u = inconclusive; x = not tested or not shown.

SMILES	Calb FLC	A1 inh	LANA-H2B inh	Ecoli rRNA inh	Ecoli rRNA inh OD600	Ecoli rRNA inh RFP	ALR H2O2 inh	T cruzi repl	Beta2AR agonist	Beta cell apopt
O=C(C[C@H]1C/C=C\CC[C@@H](Cc2ccc(F)cc2)C(=O)O[C@@H](c2ccccc2)CNC1=O)N[C@@H](CO)Cc1ccccc1	x	0.1	7.9	4	10	2.3	-7	x	-2	4
CN(c1ccc(OCCOc2ccccc2Cl)cc1)S(=O)(=O)c1ccccc1	x	0.8	-9.4	5	1	-1.0	-1	x	-11	6
CC(=O)c1sc2nsc(SCCN3CCCCC3)c2c1N	-5	-0.1	1.2	-1	-1	1.7	8	45	5	-4
COc1cc(/C=C(\C#N)c2nc3ccccc3[nH]2)cc(OC)c1O	21	-2.3	-15	-17	-25	4.2	99*	-2	-18	6
COC(=O)c1ccccc1NC(=O)CCNC(=O)Cn1cnc2ccccc2c1=O	-4	0.4	-1.7	x	x	x	0	0	2	1
CC(=O)N1c2ccc(S(=O)(=O)NCCC(=O)Nc3ccc(OC(F)(F)F)cc3)cc2CC1C (stereo not drawn)	1	-1.6	2.6	-10	-13	0.4	-12	-27	-8	x
Cc1ccc(CSCCNC(=O)c2ccc(N(C)S(=O)(=O)c3ccccc3)cc2)cc1	6	-0.1	0.1	x	x	x	-7	-1	13	5
O=C(O)c1cccc(Cn2cccn2)c1	-3	0.3	-1.3	x	x	x	-1	-11	3	-4
Cc1ccc(CN(c2ccc(C(=O)Nc3cccnc3)cc2)S(C)(=O)=O)cc1	-2	0.4	4.5	x	x	x	0	-18	-17	3
NNC(=O)c1ccc(COc2cccc3cccnc23)cc1	u	-0.2	0.7	-14	-5	0.1	98*	7	1	-5
Cc1ccc2nc(SCC(=O)Nc3ccc(F)c([N+](=O)[O-])c3)[nH]c2c1	2	1.5	-1.4	x	x	x	x	-12	6	-7
Cc1ccc(-n2nc3c(N4CCC(C(=O)N5CCC(C(N)=O)CC5)CC4)nnc(C)c3c2C)cc1	10	1.6	11	11	11	3.1	-4	5	2	-7
COc1ccc(S(=O)(=O)Nc2ccc(O)c(Sc3ncn[nH]3)c2)cc1	11	0.6	2.6	x	x	x	x	12	10	-1
CCc1ccc(CN/C=C/C(=O)c2ccc(Br)cc2)cc1	-32	u	-0.4	x	x	x	7	23	-5	-4
COC(=O)c1cc2c(C)nn(-c3ccccc3)c2s1	-1	1.0	-4.2	x	x	x	-6	7	1	3
Cc1ccccc1N1CCN(CC(=O)NCc2ccc(Cl)cc2)CC1	0	1.0	-0.2	-49	-75	-9.1	-4	17	6	2
CCOC(=O)COc1ccc2nsnc2c1Cl	-13	0.3	-5.8	x	x	x	-6	0	14	1
CCOc1cc(S(=O)(=O)Nc2cc(C)cc(C)c2)ccc1Cl	21	-0.1	-2.1	x	x	x	-25	23	-15	4
COc1ccc2cc(C#N)c(Cl)nc2c1	1	0.7	-1.6	8	7	-0.4	4	3	6	x
CC(NC(=O)c1cn(C(C)c2ccccc2F)nn1)c1ccncc1 (stereo not drawn)	-14	0.0	1.5	0	3	-2.0	-6	19	3	2
C/C(=N/OC(=O)C1CC12CCC2)c1ccc(Br)cc1 (stereo not drawn)	-18	0.0	3.9	-26	-23	1.4	-3	-18	4	-3
COC(=O)C(Cc1ccccc1)NC(=O)CNC(=O)c1ccc(Br)cc1 (stereo not drawn)	3	0.0	1.1	1	13	1.2	-9	-4	5	x
CSc1nnc(-c2sc3cc(Cl)ccc3c2Cl)n1C	57	-2.0	-0.4	x	x	x	x	-2	-21	2
O=C1NCC(c2ccccc2)C1C(=O)N/N=C/c1ccc(Cl)s1 (stereo not drawn)	18	2.2	0.2	-5	-8	1.0	-7	17	-3	0
Cc1ccc(/C=C2\SC(=S)N(C3CCS(=O)(=O)C3)C2=O)cc1 (stereo not drawn)	40	0.8	2.5	23	12	5.2	2	2	6	-18
CCOC(=O)CC12CN3CN(C1)CC(CC(=O)OCC)(C3)C2=O	2	0.9	0.3	17	15	0.6	3	-21	-4	x
COc1ccc(NC(=O)CC2C(=O)Nc3ccccc3N2CC(=O)N2CCCC2)cc1 (stereo not drawn)	x	1.8	8.9	-1	5	-0.4	98*	x	-9	-5
CSc1sc(-c2nnc(SCC(=O)Nc3ccccc3)n2C)c2c1C=CCC2	u	0.3	-3.2	x	x	x	-9	2	-3	-2
COc1ccc(S(=O)(=O)N(CC(=O)NCC2CCCO2)Cc2ccccc2)cc1C (stereo not drawn)	3	0.1	-3.9	-4	-17	2.0	1	0	-1	1
CCOC(=O)c1sc(NC(=O)c2ccc(S(=O)(=O)N3CCOCC3)cc2)cc1C	2	-0.1	-14	x	x	x	-25	20	3	1
CCCc1nnc(NC(=O)c2cn(CC)c3cc(N4CCN(C)CC4)c(F)cc3c2=O)s1	29	0.1	-1.9	x	x	x	-3	12	-21	-8
COc1c(C(=O)Nc2ccc3[nH]c(=O)[nH]c3c2)cc2ccccc2c1Br	-3	-0.4	-7.2	7	14	2.0	-3	-3	-6	-4
Cc1ccc(NC(=S)NCCSc2ccc(Cl)cc2)cc1	4	0.3	-5.4	-39	-53	-16	-5	51	2	-12
O=C(NCc1cccs1)c1cccnc1SCCS(=O)(=O)c1ccc(C(F)(F)F)cn1	3	0.6	4.8	-5	11	-2.1	-1	-40	-9	-6
Cc1ccc2cc(CN(CC3CCCO3)C(=S)NCc3ccco3)c(=O)[nH]c2c1 (stereo not drawn)	-2	0.3	1.1	-12	-8	1.9	1	10	-10	-1
O=C(Cn1cc([N+](=O)[O-])ccc1=O)Nc1ccc2c(c1)OCO2	x	-0.2	-7.4	24	21	3.0	-13	x	-6	0
Cc1c(C(=O)N2CCN(c3ccccn3)CC2)cccc1[N+](=O)[O-]	1	-0.4	-2.1	12	5	1.3	-6	-8	2	-13
CCn1c2c(c3ccc(OC)cc31)CCCC2=O	1	0.4	-0.8	x	x	x	-17	-5	-2	-12
O=C(OCc1nc2ccccc2s1)c1cccc(S(=O)(=O)N2CCOCC2)c1	-6	-0.7	0.3	x	x	x	-5	10	1	0
CCCc1ccc(-c2cc(NC(=O)CSc3n[nH]c(N)n3)n(-c3ccccc3)n2)cc1	12	0.1	-1.5	x	x	x	5	28	7	-6
Cc1csc(SC(C)C(=O)Nc2ccc(S(=O)(=O)N3CCCC3)cc2)n1 (stereo not drawn)	4	0.3	0.6	x	x	x	x	7	-18	5
COc1cccc(NC(=O)NC2(C(=O)N3CCN(C)CC3)CCCCC2)c1	0	-0.1	3.2	5	5	-1.0	-2	-7	-2	-5
COc1ccc(CC(=O)NC2CC(C)(C)NC(C)(C)C2)cc1	5	1.0	-2.9	x	x	x	6	-3	-5	-2
Cc1ccc(S(=O)(=O)NC(CC(C)C)C(=O)N2CCOCCOCCOCCOCC2)cc1 (stereo not drawn)	-5	0.0	1.3	-1	0	0.1	x	0	0	1
O=C(N/N=C/c1ccccn1)c1cc(-c2ccc(Br)s2)[nH]n1	-16	0.4	-6.1	4	2	2.2	x	6	6	6
O=C(N/N=C/C=C/c1ccc(Br)cc1)C(O)c1ccccc1 (stereo not drawn)	18	-0.2	-2.0	-1	3	-1.9	8	-9	-6	-4
CCOC(=O)COc1ccc2c(c1)C(=O)CC(C)(C)O2	2	0.7	-1.8	4	2	-1.9	1	-9	-1	-2
COc1ccc(CNC(=O)C(C)n2nc(C)c3c(C)n(-c4ccc(C)cc4)nc3c2=O)cc1 (stereo not drawn)	4	-0.2	-2.8	-4	-2	2.6	-10	4	7	-1
CSCCC(NS(=O)(=O)c1ccc2c(c1)oc(=O)n2C)C(=O)NCc1cccs1 (stereo not drawn)	1	0.1	2.6	3	-5	-0.5	-5	-2	0	-2
C[C@@H]1C=CC(=O)O[C@@H]1c1ccc(Cl)cc1	-2	0.0	1.8	14	5	1.4	2	-6	x	-26
CCOC(=O)Nc1ccc2c(c1)N(CCCN(C)C)c1ccccc1CC2	-14	0.0	-0.3	-22	-36	7.4	99*	24	12	6
Cc1ccccc1N1CCN(C(=S)c2ccc(-c3cccc([N+](=O)[O-])c3)o2)CC1	-5	-1.0	-0.3	-5	-4	5.2	-6	31	2	11
CCOCCCNC(=O)CCNS(=O)(=O)c1ccc(C)cc1	u	-0.6	-0.8	x	x	x	-11	-18	7	-3
COc1ccc2nc(NC(=O)CCc3ccc(OC)c(OC)c3)sc2c1	6	1.1	1.7	15	8	-0.1	5	8	5	0
CCc1cc(=O)oc2cc(C)cc(OCC(=O)NCCc3c[nH]c4ccccc34)c12	-3	0.1	-4.4	-16	-8	-3.9	-21	31	3	1
CC(=O)Nc1ccc(S(=O)(=O)N(CC(=O)O)Cc2ccccc2)cc1	-3	-0.3	3.2	x	x	x	-20	-3	-2	5
CCOC(=O)N1CCN(CC(=O)Nc2nnc(C(F)(F)F)s2)CC1	0	-1.3	3.7	17	6	0.2	-7	4	3	-12
Cc1cc(NC(=O)CSc2nnc(C)n2C)no1	2	-0.5	-2.1	3	5	-5.5	-5	-11	-2	-6
Cc1ccc(NC(=O)N2CCN(C(=O)c3ccco3)CC2)cc1Cl	-2	-0.2	-3.0	-22	-22	-7.8	-3	1	-9	x
CCCC(=O)Nc1nc2nc(-c3ccccc3)cc(-c3ccccc3)n2n1	14	-0.2	0.6	x	x	x	-16	15	-8	5

Next records
SMILES	Calb FLC	A1 inh	LANA-H2B inh	Ecoli rRNA inh	Ecoli rRNA inh OD600	Ecoli rRNA inh RFP	ALR H2O2 inh	T cruzi repl	Beta2AR agonist	Beta cell apopt
Cc1sc2ncnc(Nc3ccccc3)c2c1C	3	0.6	4.1	x	x	x	-2	-4	-8	1
Cc1nn(-c2ccccc2)c(C)c1C(=O)OCC(=O)NC(=O)NC1CCCCC1	16	-0.2	6.8	x	x	x	-7	-7	-5	-2
CS(=O)(=O)N(CC(=O)NCc1ccncc1)c1cc(Cl)cc(Cl)c1	53	-0.2	2.1	x	x	x	-7	-1	3	-7
CCCn1c(SCC(=O)N2CCc3ccccc32)nnc1-c1ccco1	-5	0.3	3.7	x	x	x	-7	-9	-35	2
Cc1ccc(C)c(SCC(=O)Nc2oc(C)c3c(C)n[nH]c(=O)c23)c1	3	-0.8	2.5	1	0	-1.3	4	3	2	-4
CCOc1ccc(-n2c(C)cc(/C=N/NC(=O)C(N)=O)c2C)cc1	-31	0.5	-4.2	2	4	1.4	1	7	9	-6
C=CCNC(=S)Nc1cc(S(=O)(=O)N2CCOCC2)ccc1-n1cncn1	14	0.8	-5.1	11	6	2.0	x	-8	3	1
CCOC(=O)c1ccccc1NC(=O)CC1SC(=NC)N(C)C1=O (stereo not drawn)	31	-0.5	-4.4	x	x	x	3	-27	3	-3
O=C(NCc1ccc(Cl)cc1)c1cccc(NC(=O)c2ccccc2)c1	-10	-1.0	-0.9	-8	-3	7.4	-3	-1	6	11

The list is partial (hit frequency here may not be typical).
